Tg IFNy HTS: inhibitors of Toxoplasma gondii growth with IFN-gamma. AID 1259416. Toxoplasma gondii growth in IFN-gamma-treated host cells; stronger effect = lower value; reference of the scale not given here. activity change, negative = inhibition, %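 (about 20 µM by stock and volumes)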. 3.8% of 69,000 active;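 active = below -70%; inconclusive = fit judged invalid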;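 also: host cells are HeLa cells infected with Toxoplasma gondii; parasite growth read as luciferase light; one replicate is shown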
* hit, by the source's call; ? = inconclusive; ! = not active in a repeat.

Compound	Tg IFNy HTS
C[C@@H]1CN([C@H](C)CO)C(=O)c2cc(NC(=O)Nc3ccc4c(c3)OCO4)ccc2O[C@@H](C)CCCCO[C@H]1CN(C)S(=O)(=O)c1ccccc1	276
CC(C)c1nnc2n1CCN(C(=O)c1ccccc1C1CCNC1)CC2 (stereo not given)	-2
Cc1cc(C)c(N(Cc2ccccc2)S(=O)(=O)c2ccc(OCCNC(=O)c3cc4ccccc4o3)cc2)c(C(=O)NO)c1	-72*!
COc1cc(F)ccc1-c1c(-c2ccccc2)ncn1C[C@H]1CCCN1	16
Cc1nc(C(F)(F)F)ccc1C(=O)NC1CCCN(Cc2cnn(C)c2C)CC1 (stereo not given)	2
CCn1c(-c2cc(NC(=O)c3ccncc3)n[nH]2)cc2ccccc21	-91*
CC(=O)N1CCCC[C@@H]2[C@H]1[C@@H](c1ccccc1)CCN2Cc1ccncc1	2
C=CCN(C)c1nc(-c2cccnc2)nc2c1CNC2	-4
CCn1cc(S(=O)(=O)N2CCCC(N(C)C)CC2)cn1 (stereo not given)	-6
CC[C@H]1C[C@@H](NC(C)=O)C[C@@H](c2cccc(Oc3ccccc3)c2)O1	6

Taken from above.
Value for C[C@@H]1CN([C@H](C)CO)C(=O)c2cc(NC(=O)Nc3ccc4c(c3)OCO4)ccc2O[C@@H](C)CCCCO[C@H]1CN(C)S(=O)(=O)c1ccccc1 under Tg IFNy HTS: 276
Value for Cc1nc(C(F)(F)F)ccc1C(=O)NC1CCCN(Cc2cnn(C)c2C)CC1 (stereo not given) under Tg IFNy HTS: 2
Value for CC(=O)N1CCCC[C@@H]2[C@H]1[C@@H](c1ccccc1)CCN2Cc1ccncc1 under Tg IFNy HTS: 2
Value for C=CCN(C)c1nc(-c2cccnc2)nc2c1CNC2 under Tg IFNy HTS: -4
Value for Cc1cc(C)c(N(Cc2ccccc2)S(=O)(=O)c2ccc(OCCNC(=O)c3cc4ccccc4o3)cc2)c(C(=O)NO)c1 under Tg IFNy HTS: -72*!

Continued.
Compound	Tg IFNy HTS
O=C(Nc1cc(F)ccc1F)N[C@@H]1CC[C@@H](CC(=O)N2CCc3ccccc3C2)O[C@H]1CO	-46
O=C1CCc2cc(S(=O)(=O)N(Cc3ccccc3)c3ccccc3)cc3c2N1CCC3	13
CC(=O)Nc1ccc(C)cc1S(=O)(=O)N1CCC2(CC1)Nc1ccc(C)c(C)c1-n1cccc12	-3
CCS(=O)(=O)Nc1ccc2c(c1)C(=O)N(C)[C@H]1CC[C@H](CC(=O)N3CCN(C)CC3)O[C@@H]1CO2	2
COc1cc(Br)c(S(=O)(=O)Nc2ccc(Cl)c(O[C@@H]3CCN(C)C3)c2)cc1OC	-2
CNC(=O)[C@@H]1C[C@@H](N)CN1Cc1c(C)nn(C)c1Oc1ccc(Cl)cc1	-5
Cc1nnsc1C(=O)Nc1ccc(-n2nc(C(F)(F)F)cc2C(F)(F)F)cc1	-81*
COC[C@H](NC(=O)c1cnc(C)s1)C(=O)N[C@@H](COC)C(=O)N[C@@H](Cc1ccccc1)C(=O)C1(C)CO1 (stereo not given in full)	-77*
Cc1ccc(Nc2nc(C(=O)NCc3ccc(N(C)C)cc3)nc3ccccc23)cc1	2
CC(C)C(=O)Nc1c(O)c2ccccc2[nH]c1=O	2
Nc1nncn1C(=O)c1ccc2c(c1)OCO2	-29
CN1C(=O)c2cc(NS(C)(=O)=O)ccc2OC[C@H]2O[C@H](CC(=O)N3CCOCC3)CC[C@H]21	-6
O=S1(=O)c2ccccc2OCC2(CCN(Cc3ccccc3F)CC2)CN1CC1CC1	55
CC(C)NC(=O)N[C@@H]1CC[C@@H](CC(=O)NCCCN(C)C)O[C@@H]1CO	48
O=C([C@@H]1[C@@H](CO)[C@@H]2Cn3c(cccc3=O)[C@@H]2N1C(=O)CC1CC1)N1CCc2ccccc2C1	6
COCCn1c(C)cc(CN2CC3CCCN3C[C@@H]2C)c1C (stereo not given in full)	5
Cc1cnc(CN(C)C(=O)CCCc2nc(-c3ccccc3C)no2)[nH]1	-11
O=C(CC(C(=O)c1cccnc1)c1ccc2c(c1)OCO2)c1ccc(Cl)cc1 (stereo not given)	35
Cc1ccc(-c2ncccc2OC(=O)C23CC4CC(CC(C4)C2)C3)cc1	-34
Cc1cccc2c1CC(C)(C)N/C2=C\C(N)=O	3

Brought forward from above: seven compounds, then new ones.
Compound	Tg IFNy HTS
CC(C)NC(=O)N[C@@H]1CC[C@@H](CC(=O)NCCCN(C)C)O[C@@H]1CO	48
O=C([C@@H]1[C@@H](CO)[C@@H]2Cn3c(cccc3=O)[C@@H]2N1C(=O)CC1CC1)N1CCc2ccccc2C1	6
COCCn1c(C)cc(CN2CC3CCCN3C[C@@H]2C)c1C (stereo not given in full)	5
Cc1cnc(CN(C)C(=O)CCCc2nc(-c3ccccc3C)no2)[nH]1	-11
O=C(CC(C(=O)c1cccnc1)c1ccc2c(c1)OCO2)c1ccc(Cl)cc1 (stereo not given)	35
Cc1ccc(-c2ncccc2OC(=O)C23CC4CC(CC(C4)C2)C3)cc1	-34
Cc1cccc2c1CC(C)(C)N/C2=C\C(N)=O	3
CN1CCC(O)(CNc2ccnc(C(=O)NCc3cccnc3)c2)CC1	-15
Cc1ccc(C)c(OC(C)C(=O)N(C)Cc2nc3ccccc3[nH]2)c1 (stereo not given)	60
CC(C)[C@H]1COCn2nncc2CC[C@H](Cc2ccc(Cl)cc2)C(=O)N1	6
O=C(CC1CCCC1)N1CCC2(CC1)Nc1ccc(Cl)cc1-n1cccc12	59
Cc1cc(NC(=O)CN2C(=O)COc3ccccc32)ccc1Cl	-9
Cc1ccc(S(=O)(=O)NCCc2sc(-c3ccc(Cl)cc3)nc2C)cc1	4
Cc1cnc2c(C(=O)Nc3ccc(CN4C(=O)NC(C)(C)C4=O)cc3)cnn2c1	50
CCCCCCCCCCCCCCCCCC(=O)OCC(O)CO (stereo not given)	12
CN1C(=O)c2cc(NC(=O)Cc3cccs3)ccc2OC[C@@H]2O[C@@H](CC(=O)N[C@@H]3CCN(Cc4ccccc4)C3)CC[C@H]21	3
COc1ccc(-c2cc(C(=O)NCCc3nc4cc(C)c(C)cc4[nH]3)nn2C)cc1	-1

A stretch from further up, for reference:
Compound	Tg IFNy HTS
CN1C(=O)c2cc(NC(=O)Cc3cccs3)ccc2OC[C@@H]2O[C@@H](CC(=O)N[C@@H]3CCN(Cc4ccccc4)C3)CC[C@H]21	3
COc1ccc(-c2cc(C(=O)NCCc3nc4cc(C)c(C)cc4[nH]3)nn2C)cc1	-1

The list continues.
Compound	Tg IFNy HTS
O=C(CC1C2CCCC1CNC2)Nc1cccc(F)c1 (stereo not given)	133
CCN1CCC2(CC1)OC(=O)C(C)=C2C(=O)Nc1ccc(Br)cc1F	179
COCC(=O)N1CCCN(Cc2ncc[nH]2)CC1	?
COc1ccccc1CCC(=O)N1CCCC2(C1)Nc1cccnc1NC2=NC1CCCC1 (stereo not given)	-11
c1ccc(Cc2nc(C3CCN(c4ncccn4)CC3)n[nH]2)cc1	-17
CC(=O)NC(c1ccccn1)C1CCC(CNC(=O)Cc2ccc(F)cc2)CC1 (stereo not given)	12
CC(=O)/C=C/c1ccc(C)o1	1
Cn1cc(C(=O)N2CC[C@@H]3[C@H]2CCN3CCc2ccccc2)cn1	-22
CCOc1ccc(-c2nc(CN3CCN(C(=O)Nc4ccccc4)CC3)c(C)o2)cc1	-5
COCCNc1ccnc(C2COCCN2C(=O)C2CCOCC2)n1 (stereo not given)	4
CCOc1cccc(C2c3[nH]c4ccccc4c3CCN2C(=O)c2ccncc2)c1 (stereo not given)	-84*
CS(=O)(=O)N1CC=CC1C(=O)NC(c1ccncc1)c1ccc(Cl)cc1 (stereo not given)	-16
CN1C(=O)c2cc(NC(=O)Cc3cccs3)ccc2OC[C@H]2O[C@H](CC(=O)NCc3ccc(-c4ccccc4)cc3)CC[C@H]21	-2
Cc1cc(C(=O)Nc2cc(-c3ccc(F)cc3)nn2C)nc(N2CCOCC2)n1	6
C[C@H]1CN([C@@H](C)CO)C(=O)c2cc(Br)cnc2O[C@H]1CN(C)Cc1ccc(Oc2ccccc2)cc1	61
CC(c1cncs1)N(C)S(=O)(=O)c1sc2c(c1C(=O)O)CCNC2 (stereo not given)	7
CC(c1cccc(-c2nccn2CCc2cn[nH]c2)c1)N(C)C (stereo not given)	-64
c1cncc(-c2nc3c(c(NCCn4cccn4)n2)CCNC3)c1	1
CCN1C(=O)CCCC12CCCN(C(=O)c1ccc3ncccc3c1)C2 (stereo not given)	-30
O=S(=O)(c1ccc2[nH]c3c(c2c1)CCCCCC3)N1CCCC1	248
CC(C)CN1C[C@@H]2CC[C@@]3(N=C(c4ccccc4)NC3=O)[C@@H]2C1	-5
COc1ccc(C2NCCc3c2[nH]c2ccccc32)cc1CN1CCN(c2ccc([N+](=O)[O-])cc2)CC1 (stereo not given)	-117*
CCC(Sc1nc(Cc2ccc(O)cc2)c(C)[nH]1)C(=O)Nc1cc(C)on1 (stereo not given)	22
CCCn1cnnc1CN(C)C(=O)c1cc2ccccc2s1	3
CCc1ncc(-c2nccn2Cc2cnn(-c3ccc(F)cc3)c2)cn1	-6
O=C(O)[C@@H](O)c1ccccc1	34
O=C(C[C@@H]1C[C@@H]2C=C[C@H]1C2)N1C[C@H]2C[C@H](O)[C@H](O)C[C@H]2C1	-35
CC(C)CCCC1CN(S(=O)(=O)N2CCCCC2)CCO1 (stereo not given)	-2
COc1ccc(S(=O)(=O)Nc2ccc3c(c2)C(=O)N([C@@H](C)CO)C[C@H](C)[C@H](CN(C)S(=O)(=O)c2ccc(Cl)cc2)OCCCC[C@H](C)O3)cc1	?
O=C1CCC2(CCCO2)CCN1Cc1cnn(-c2ccccc2F)c1 (stereo not given)	32
O=C(C1CCC1)N1CCC2(CCCN2CC2CC2)CC1	23
CC(=O)NC(c1ccccn1)C1CCC(CNC(=O)c2ccc(=O)[nH]n2)CC1 (stereo not given)	19
Fc1cccc(CN2C[C@H](N3CCOCC3)C3OCCCC32)c1 (stereo not given in full)	4
CCOc1ccc(-c2nc3c(s2)CN(S(=O)(=O)c2ccc(OCC)cc2)CC3)cc1	37
CC(C)NC(=O)Nc1ccc2c(c1)C(=O)N([C@@H](C)CO)C[C@@H](C)[C@H](CN(C)C(=O)C1CCCCC1)OCCCC[C@@H](C)O2	113
CN1C(=O)CN(CC(=O)N2CCC(N)CC2)C(=O)c2ccccc21	-3
COc1cc2c(cc1CCNS(=O)(=O)c1ccc(N3CCCC3=O)cc1)CCC2	-1
CCN(CC)C(=O)CSc1nnc(-c2ccccn2)n1-c1ccc(Cl)cc1	-27
CC1CCN(S(=O)(=O)c2ccc3c(ccc(=O)n3CC(=O)Nc3ccc(C(C)C)cc3)c2)CC1	-47
C[C@@H]1CC=CC[C@@H](c2ccc3c(c2)OCO3)NC(=O)[C@@H](C)N(C)C(=O)c2ccccc2O1 (mixture of isomers)	-26
CNC(=O)[C@@]12CCC3(CCN(C(=O)NC(C)C)CC3)[C@H]1CN(C)C2	9
O=C(CN1CCOCC1)N1CCCCN2[C@@H](CO)[C@H](c3ccc(Br)cc3)[C@@H]2C1	24
C[C@@H]1CN([C@@H](C)CO)C(=O)c2cc(NS(C)(=O)=O)ccc2O[C@@H]1CN(C)C	-1
Cc1ccc(C(=O)N2CCN3C[C@H](OCc4ccccn4)C[C@@H]3C2)cn1	12
COC[C@@H]1CN(CC2CC2)C[C@@]12CCN(CCc1ccccc1)C2	-22
C=CCN1CCCC12CCCN(C(=O)c1occc1C)C2 (stereo not given)	-12
C/C=C/C(=O)Nc1ccccc1-c1cc(OC)c(OC)c(OC)c1	29
CC(C)(C)[S@@](=O)N1Cc2cc(C(=O)NCC(F)(F)F)nc(-c3cccc(-c4cccc(F)c4)c3)c2[C@H]1CCO	-21
COc1ccc(C)cc1S(=O)(=O)Nc1ccc(F)cc1	11
C[C@H]1CN([C@@H](C)CO)S(=O)(=O)c2ccc(C#Cc3cccc(F)c3)cc2O[C@H]1CN(C)S(=O)(=O)c1cn(C)cn1	?

(more compounds)
Compound	Tg IFNy HTS
CC(C)N1CCC(c2ccnc3c(C(=O)N4CCCN(C)CC4)ncn23)CC1	-49
CCCc1ccc(C(=O)N2Cc3c(CN4CCCCC4)nn(C)c3C2)cc1	-79*
Cc1noc([C@@H]2C[C@@H]3OCC[C@@H]3N(Cc3cccs3)C2)n1	-1
O=C(c1ccccc1F)N1CCCC2(COCCN(CC3CC3)C2)C1 (stereo not given)	-5
O=C(N[C@H]1C=C[C@H](CC(=O)N2CCN(c3ccccc3)CC2)O[C@H]1CO)c1ccccc1	25
COCC(=O)N1CCCN(Cc2cnn3c(C)cc(C)nc23)CC1	-4
CO[C@H]1CN(C)C(=O)c2cc(NC(C)=O)ccc2OC[C@H](C)N(Cc2ccncc2)C[C@@H]1C	68
O=C(C[C@H]1CC[C@H]2[C@@H](COC[C@@H](O)CN2C(=O)Nc2cccc(F)c2)O1)NCCCN1CCOCC1	-20
Cc1noc(C)c1COCC1OCCc2cn(C(C)C)nc21 (stereo not given)	-1
CN(C)CCOCC1CN(C(=O)c2ccc[nH]2)Cc2ccnn2C1 (stereo not given)	1
COc1ccc2c3c([nH]c2c1)[C@H](CO)N(C(=O)c1cccc(F)c1)CC31CN(C(=O)CC2CC2)C1	-37
COc1ccc(-c2cccc(OC(C)C(N)=O)c2)c2cccnc12 (stereo not given)	-45
COCCNC(=O)C[C@@H]1CC[C@@H]2[C@H](COC[C@@H](O)CN2Cc2ccc(Cl)c(Cl)c2)O1	19
CN1C(=O)C2(CC2C(=O)NC2CCC2)c2ccccc21 (stereo not given)	-48
O=S1(=O)CCC(S(=O)(=O)N2CCCCCC2c2cc(-c3ccc(F)cc3)on2)C1 (stereo not given)	-20
CN(C)C1CC2(CCN(C(=O)c3ccnnc3)CC2)C1	-15
C[C@@H]1CCCCO[C@H](CN(C)CC2CCCCC2)[C@H](C)CN([C@H](C)CO)C(=O)c2cc(NS(C)(=O)=O)ccc2O1	-5
COc1cc(OC)c(NC(=O)NCc2ccccc2)cc1NC(C)=O	253

Not all compounds are listed; the hit share may differ from the screen's.
